Compound activity from PubChem.
UCH37 DUB inh = blocks the human deubiquitinase UCH37 | Q9Y5K5 | purified proteasome/UCH37, Ub-AMC cleavage fluorescence | inhibition, % (concentration not given with the values) | 330,000 tested, 0.33% active;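 active = mean of two replicates above 20%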;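 note: 0% = compound-free wells with enzyme and 100% = wells lacking proteasome; stock transfer was 100 nL into about 20 µL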
Target sequence (Q9Y5K5 whole entry, looked up): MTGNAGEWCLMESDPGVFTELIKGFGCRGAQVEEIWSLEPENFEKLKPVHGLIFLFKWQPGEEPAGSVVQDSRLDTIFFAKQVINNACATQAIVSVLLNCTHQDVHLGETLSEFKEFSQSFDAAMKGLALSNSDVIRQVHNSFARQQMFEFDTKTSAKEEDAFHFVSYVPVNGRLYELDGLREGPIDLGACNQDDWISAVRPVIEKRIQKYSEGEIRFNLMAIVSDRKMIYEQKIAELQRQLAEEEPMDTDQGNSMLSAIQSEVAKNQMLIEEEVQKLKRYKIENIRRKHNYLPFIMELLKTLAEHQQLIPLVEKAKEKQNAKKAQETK
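Material: Human UCH37 enzyme supplied as purified proteasome complex | Schedule: 30 min compound-proteasome preincubation then 25 min substrate reaction, room temperature | Detection: AMC fluorescence from Ub-AMC cleavage, excitation 355 nm, emission 460 nm | Benchmarks: Wells without proteasome as full block, compound-free enzyme plus substrate as uninhibited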
B2AR ag = activates human beta-2 adrenergic receptor causing internalization; Am2.2-beta2AR cells, FAP receptor internalization, flow cytometry; reference of the scale not given here; response, % (no concentration beside the values); 340,000 tested, 0.43% active; P07550;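 active = response above a set limit, near 3 SD of response in nonfluorescent compounds, cut at about 42% in these data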;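 note: stock transfer was 100 nL into about 11 µL; a reference agonist was the positive control; negative values mostly stem from fluorescent compounds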
Target sequence (P07550 whole entry, looked up): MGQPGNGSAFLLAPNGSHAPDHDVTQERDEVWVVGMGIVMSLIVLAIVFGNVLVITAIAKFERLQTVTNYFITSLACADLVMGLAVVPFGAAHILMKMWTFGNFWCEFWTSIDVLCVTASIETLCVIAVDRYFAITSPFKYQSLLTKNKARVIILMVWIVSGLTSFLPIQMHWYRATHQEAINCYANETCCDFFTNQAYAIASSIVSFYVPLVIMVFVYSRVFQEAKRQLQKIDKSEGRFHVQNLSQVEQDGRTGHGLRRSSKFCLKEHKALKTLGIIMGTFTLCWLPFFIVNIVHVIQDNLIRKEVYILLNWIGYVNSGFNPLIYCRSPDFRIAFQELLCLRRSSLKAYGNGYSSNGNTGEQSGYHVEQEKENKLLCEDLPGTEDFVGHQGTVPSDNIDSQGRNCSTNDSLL
Bfl-1 A1 inh = inhibitors of the anti-apoptotic protein A1, read as caspase activation | MEF A1-2A-BIM cells, Caspase-Glo 3/7 luminescence, 3 h; percent of clofoctol response, vehicle zero | 330,000 tested, 0.066% active | caspase activation, % (concentration not given with the values);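 active = over half of replicate activation scores above 10%, or exactly half above 10 with the replicate mean above 10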;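 note: wells of about 30 µL received 50 nL stock; many hits fall short of the cut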
T cruzi repl = T. cruzi replication inhibition; inhibition, % (concentration not given with the values); 300,000 tested, 1.4% active; T. cruzi beta-gal in NIH3T3, luminescence, 90 h;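 active = mean inhibition across valid replicates above about 55%, limit read from the data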;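 note: signal also drops with host cell toxicity which is not excluded here; 0% = plate median of DMSO wells and 100% = zero luminescence signal; higher percent means less beta-gal luminescence so fewer parasites; stock transfer was 50 nL into about 50 µL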
Calb FLC = affects C. albicans growth with fluconazole. C. albicans CaCi-2 (fluconazole-resistant clinical isolate) + fluconazole, Alamar Blue growth, 48 h. growth inhibition, % (concentration not given with the values). 300,000 tested, 0.57% active. AID 1979;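 active = most replicates above 75%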;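 note: all wells also contain fluconazole at 8 µg/ml as a sub-toxic cotreatment; 0% = median of DMSO wells and 100% = median of geldanamycin control wells; wells of about 8 µL received 7.5 nL stock; the first replicate is given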
RanGTP-Imp inh = inhibitors of RanGTP-importin-beta interaction, primary screen, biochemical, FRET, CFP-Ran, YFP-importin-beta, homogeneous; cell-free CFP-Ran/YFP-importin-beta FRET ratio; 300,000 tested, 1.1% active; inhibition, % (no concentration beside the values);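 active = most replicates above 15%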;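 note: 0% = DMSO wells and 100% = Ran loaded with GDP instead of GTP; wells of about 40 µL received 100 nL stock; the first replicate is given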
Beta cell apopt = blocks beta cell apoptosis; protection from apoptosis, % (no concentration beside the values); 300,000 tested, 0.8% active; INS-1E cytokine-induced death, ATP luminescence, 48 h; percent of positive-control rescue, neutral wells zero;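 active = all replicates at 75% or more, or half of them and the mean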;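 note: 0% = cytokine-treated negative control wells and 100% = positive control rescue; higher means more ATP so stronger rescue from cytokine killing; wells of about 40 µL received 100 nL stock; the first replicate is given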
LANA-H2B inh = blocks KSHV LANA binding to histone H2A/H2B; cell-free LANA-H2A/H2B peptide, fluorescence polarization; inhibition, % (no concentration beside the values); 320,000 tested, 0.6% active; in the data active = inhibition mostly above about 10%, no sharp cut-off; inactive = mostly below about 6.7%;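 note: stock transfer was 7.5 nL into about 10 µL; 0% = median of vehicle wells and 100% = median of positive control wells; one replicate is shown; the record names a cut of 25% in any replicate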
An asterisk follows results filed as active. The order is random; about 4.3% have a hit in one of these screens.

A first look, two compounds:
For COc1ccc(-c2nc(CS(=O)CC(=O)N3CCOCC3)c(C)o2)cc1OC (configuration not stated) the results were UCH37 DUB inh -1.8, B2AR ag -3, Bfl-1 A1 inh -0.1, T cruzi repl -2, Calb FLC 1, RanGTP-Imp inh 7.0, Beta cell apopt 2 and LANA-H2B inh -0.5.
`O=C(Nc1cccnc1)c1cc(-c2cccc(Cl)c2)on1` gave UCH37 DUB inh 2.5, B2AR ag -12, Bfl-1 A1 inh 1.1, T cruzi repl -11, Calb FLC 8, RanGTP-Imp inh -0.7, Beta cell apopt 3 and LANA-H2B inh 4.0.

The listing, previewed entries included:
For COc1ccc(-c2nc(CS(=O)CC(=O)N3CCOCC3)c(C)o2)cc1OC (configuration not stated) the results were UCH37 DUB inh -1.8, B2AR ag -3, Bfl-1 A1 inh -0.1, T cruzi repl -2, Calb FLC 1, RanGTP-Imp inh 7.0, Beta cell apopt 2 and LANA-H2B inh -0.5.
`O=C(Nc1cccnc1)c1cc(-c2cccc(Cl)c2)on1` gave UCH37 DUB inh 2.5, B2AR ag -12, Bfl-1 A1 inh 1.1, T cruzi repl -11, Calb FLC 8, RanGTP-Imp inh -0.7, Beta cell apopt 3 and LANA-H2B inh 4.0.
For Cc1onc(-c2c(Cl)cccc2Cl)c1NC(=O)NN(C)c1ccc([N+](=O)[O-])cn1 the results were UCH37 DUB inh 11, B2AR ag 12, Bfl-1 A1 inh 1.1, T cruzi repl -31, Calb FLC 0, RanGTP-Imp inh 2.2, Beta cell apopt 0 and LANA-H2B inh 1.6.
`Cc1cccc(N2CCN(C(=O)CCCn3c(=O)c4cccn4c4cccnc43)CC2)c1C` gave UCH37 DUB inh 3.4, B2AR ag -21, Bfl-1 A1 inh -1.7, T cruzi repl 24, Calb FLC 32, RanGTP-Imp inh 1.8, Beta cell apopt 6 and LANA-H2B inh 0.6.
`Cc1cc(C)c(S(=O)(=O)c2ccccc2)c(OC(=O)c2ccc(Cl)cc2Cl)n1` gave UCH37 DUB inh 2.3, B2AR ag 12, Bfl-1 A1 inh 0.7 and LANA-H2B inh -0.8.
`CC(C)CCN(C(=S)NC(=O)C1CCCCC1)c1c(N)n(Cc2ccccc2)c(=O)[nH]c1=O` gave UCH37 DUB inh 0.5, B2AR ag 4, Bfl-1 A1 inh -0.4, T cruzi repl 8, Calb FLC -1, RanGTP-Imp inh -1.1, Beta cell apopt -6 and LANA-H2B inh -0.4.
CNC(=O)NC(=O)COC(=O)c1ccccc1OCc1ccccc1 was read as UCH37 DUB inh 3.9, B2AR ag 2, Bfl-1 A1 inh 0.6, T cruzi repl -16, Calb FLC -11, RanGTP-Imp inh -1.5, Beta cell apopt -4 and LANA-H2B inh 2.1.
Screening CC(C)=CCN1CCN(Cc2cnc(N3CCCC3)s2)CC1CCO (configuration not stated) returned UCH37 DUB inh 1.0, B2AR ag 0, Bfl-1 A1 inh 0.2, T cruzi repl -2, Calb FLC 11, RanGTP-Imp inh 1.2 and LANA-H2B inh -3.0.
Screening COc1ccc(-n2c(O)c(/C=N/Nc3nc(C)cc(C)n3)c3ccccc3c2=O)cc1OC returned UCH37 DUB inh 4.0, B2AR ag -2, Bfl-1 A1 inh -0.1, T cruzi repl 5, Calb FLC 28, RanGTP-Imp inh 4.5, Beta cell apopt 24 and LANA-H2B inh -2.0.
Cc1cc(C)c(NC(=O)c2sc3nc4c(cc3c2N)C(=O)CC(C)(C)C4)c(C)c1 was read as UCH37 DUB inh 4.6, B2AR ag -11, Bfl-1 A1 inh -0.2, T cruzi repl 13, Calb FLC 3, RanGTP-Imp inh -2.1, Beta cell apopt -3 and LANA-H2B inh -0.1.
Screening COc1cc(/C=N/NC(=O)c2ccncc2)ccc1OCC(=O)Nc1ccc(C)c(C)c1 returned B2AR ag 39, Bfl-1 A1 inh -0.1, T cruzi repl 2, Calb FLC -5, RanGTP-Imp inh -0.1, Beta cell apopt -6 and LANA-H2B inh 1.0.
Screening CCN1C(=NCCCOC(C)C)N[C@@H](CCc2ccccc2)[C@H](C(=O)NCCCOC(C)C)[C@H]1C returned UCH37 DUB inh -0.1, B2AR ag -6, Bfl-1 A1 inh 0.3, Beta cell apopt 34 and LANA-H2B inh -2.5.
For Cc1ccc(CN2CCN(C(=O)CCN3C(=O)c4ccccc4C3=O)CC2)cc1 the results were UCH37 DUB inh 20*, B2AR ag -7, Bfl-1 A1 inh -0.9, T cruzi repl 7, Calb FLC 1, RanGTP-Imp inh 6.1, Beta cell apopt 4 and LANA-H2B inh -1.9.
`C=CCNc1ncnc2c1[nH]c1ccc(Cl)cc12` gave UCH37 DUB inh -19, B2AR ag 0, Bfl-1 A1 inh 0.1, T cruzi repl 10, Calb FLC 48, RanGTP-Imp inh -2.0, Beta cell apopt -3 and LANA-H2B inh 1.0.
Screening COc1ccc(C(=O)NCCCCCCNC(=O)c2ccc(OC)cc2)cc1 returned UCH37 DUB inh 3.4, B2AR ag 8, Bfl-1 A1 inh 0.6, T cruzi repl -3, Calb FLC -5, RanGTP-Imp inh 1.9, Beta cell apopt -3 and LANA-H2B inh 0.7.
Screening O=C(Nn1c(=O)[nH]c2ccsc2c1=O)c1ccccc1 returned UCH37 DUB inh 1.2, B2AR ag -3, Bfl-1 A1 inh 0.7, T cruzi repl -4, Calb FLC -4, RanGTP-Imp inh -2.6, Beta cell apopt -4 and LANA-H2B inh 9.0.
Screening COCCN1C(=O)C(CC(=O)Nc2ccc(C(=O)O)cc2)SC1=Nc1ccccc1 (configuration not stated) returned UCH37 DUB inh 0.7, B2AR ag 6, Bfl-1 A1 inh -0.6, Calb FLC 5, Beta cell apopt -6 and LANA-H2B inh 1.3.
NNC(=O)c1cc2c(N3CCC(Cc4ccccc4)CC3)ncnc2s1 was read as UCH37 DUB inh -7.0, B2AR ag -7, Bfl-1 A1 inh 0.1, T cruzi repl -21, Calb FLC -5, RanGTP-Imp inh -0.5, Beta cell apopt 7 and LANA-H2B inh 0.4.
For Cc1ccc(-c2nn(-c3ccccc3)cc2C(=O)N2CCN(C3CCS(=O)(=O)C3)CC2)cc1 (configuration not stated) the results were UCH37 DUB inh 0.0, B2AR ag -6, Bfl-1 A1 inh 0.2, Beta cell apopt -4 and LANA-H2B inh 1.2.
`Fc1ccc(COc2cccc3cccnc23)cc1` gave UCH37 DUB inh 1.2, B2AR ag -3, Bfl-1 A1 inh -6.5, T cruzi repl 9, Calb FLC 9, RanGTP-Imp inh 2.4 and LANA-H2B inh -2.0.
`Cc1c(Cl)c([N+](=O)[O-])nn1CC(=O)NC12CC3CC(CC(C3)C1)C2` gave UCH37 DUB inh 4.0, B2AR ag -1, Bfl-1 A1 inh 0.4, T cruzi repl 5, Calb FLC -5, RanGTP-Imp inh 23, Beta cell apopt 2 and LANA-H2B inh -3.8.
`CCN1C[C@@H]2[C@@H]3C(=O)N(Cc4ccccc4)C(=O)[C@@H]3[C@](CC)(C1=O)N2C(=O)c1ccc(C(F)(F)F)cc1` gave UCH37 DUB inh -1.2, B2AR ag -2, Bfl-1 A1 inh 1.6, Beta cell apopt 5 and LANA-H2B inh 2.5.
COc1ccc(CN2C(=NC(=O)C3CCCCC3)SC3CS(=O)(=O)CC32)cc1 (configuration not stated) was read as UCH37 DUB inh 1.7, B2AR ag -2, Bfl-1 A1 inh 1.0, T cruzi repl -6, Calb FLC 3, RanGTP-Imp inh 0.2, Beta cell apopt -2 and LANA-H2B inh 0.6.
O=C(C/C=N/OCc1ccc(F)cc1Cl)c1cnc(-c2ccccc2)s1 was read as B2AR ag -3, Bfl-1 A1 inh -0.4, T cruzi repl 2, Calb FLC 2, RanGTP-Imp inh -1.3, Beta cell apopt -6 and LANA-H2B inh 2.9.
Screening NS(=O)(=O)c1ccc(NC(=O)COC(=O)COc2ccccc2)cc1 returned UCH37 DUB inh -0.2, B2AR ag -2, Bfl-1 A1 inh 0.6, T cruzi repl -11, Calb FLC 18, RanGTP-Imp inh 2.4, Beta cell apopt 2 and LANA-H2B inh 5.0.
For CCCN1CCN(C(=S)Nc2ccc([N+](=O)[O-])cc2)CC1 the results were UCH37 DUB inh 11, B2AR ag 2, Bfl-1 A1 inh 0.4, T cruzi repl -8, Calb FLC -25, RanGTP-Imp inh 0.3, Beta cell apopt 6 and LANA-H2B inh 1.0.
`COc1cc(/C=C2/SC(=O)NC2=O)ccc1OC(=O)c1ccco1` gave UCH37 DUB inh 4.5, B2AR ag 8, Bfl-1 A1 inh 0.5, T cruzi repl -10, Calb FLC -1, RanGTP-Imp inh 0.1, Beta cell apopt 23 and LANA-H2B inh 0.8.
`O=c1c(O)c(-c2cccs2)oc2ccc(Cl)cc12` gave UCH37 DUB inh -11, B2AR ag -10, Bfl-1 A1 inh 0.0, T cruzi repl 7, Calb FLC -26, RanGTP-Imp inh 18*, Beta cell apopt 0 and LANA-H2B inh 1.5.
For C=CCNC(=O)NC(=O)CN1C(=O)NC(c2ccccc2)(c2ccccc2)C1=O the results were UCH37 DUB inh 0.2, B2AR ag 2, Bfl-1 A1 inh 0.2, T cruzi repl 1, Calb FLC 10, RanGTP-Imp inh 1.0, Beta cell apopt 0 and LANA-H2B inh -2.6.
Screening CC(C)NC(=O)Cn1cc(C(=O)C(=O)N2CCOCC2)c2ccccc21 returned UCH37 DUB inh 7.3, B2AR ag -5, Bfl-1 A1 inh 0.4, T cruzi repl -5, Calb FLC -3, RanGTP-Imp inh -1.9, Beta cell apopt -2 and LANA-H2B inh -3.0.
O=C(CS(=O)(=O)c1cn(CC(=O)N2CCOCC2)c2ccccc12)NCc1ccc(F)cc1 was read as UCH37 DUB inh -11, B2AR ag -6, Bfl-1 A1 inh -1.6, T cruzi repl -10, Calb FLC 0, RanGTP-Imp inh -1.9, Beta cell apopt -9 and LANA-H2B inh 2.4.
For CNC(=O)CC1C(=O)N(c2ccc(F)cc2)C(=S)N1NC(=O)c1ccc(Br)cc1 (configuration not stated) the results were UCH37 DUB inh 0.9, B2AR ag -4, Bfl-1 A1 inh 0.2, T cruzi repl -14, Calb FLC -3, RanGTP-Imp inh 2.1, Beta cell apopt -3 and LANA-H2B inh 3.9.
Screening Cc1ccnn2cc3c(=O)n(C)c(=O)n(C)c3c12 returned UCH37 DUB inh 0.7, Bfl-1 A1 inh 0.2, T cruzi repl -24, Calb FLC 1, RanGTP-Imp inh -1.6, Beta cell apopt -3 and LANA-H2B inh 0.9.
Screening Cc1nonc1OCCN1CCN(c2ccc([N+](=O)[O-])cc2)CC1 returned UCH37 DUB inh 7.2, B2AR ag -8, Bfl-1 A1 inh 0.7, T cruzi repl 3, Calb FLC -1, RanGTP-Imp inh 0.4, Beta cell apopt 5 and LANA-H2B inh 1.9.
O=C(COC(=O)c1ccco1)Nc1cccc(Br)c1 was read as UCH37 DUB inh 0.8, B2AR ag 17, Bfl-1 A1 inh 0.5, T cruzi repl -9, Calb FLC 0, RanGTP-Imp inh -0.5, Beta cell apopt -9 and LANA-H2B inh 0.1.
For CCN(CC)CCn1c2c(c(SCC(=O)Nc3ccc(C)c(F)c3)nc1=O)CCC2 the results were UCH37 DUB inh 4.1, B2AR ag -6, Bfl-1 A1 inh -0.1, T cruzi repl 7, Calb FLC 3, RanGTP-Imp inh 4.1, Beta cell apopt -8 and LANA-H2B inh 1.3.
